HNF4A DNA FP – change in binding of human HNF4 alpha to DNA; 360,000 compounds, 0.3% hits; activity change, % at 10 µM; AID 1224865; HNF4a-FITC DNA binding, fluorescence polarization, 1 h; in the data active means activity change above about 30%, passing the limit was not always enough;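 further: controls were the assay level and a saturating level of protein; the project sought stronger binding though the title names inhibitors; some compounds called inactive have numbers as strong as hits; positive values seem to mean higher polarization but the record does not say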
Target sequence (P41235 whole entry, looked up): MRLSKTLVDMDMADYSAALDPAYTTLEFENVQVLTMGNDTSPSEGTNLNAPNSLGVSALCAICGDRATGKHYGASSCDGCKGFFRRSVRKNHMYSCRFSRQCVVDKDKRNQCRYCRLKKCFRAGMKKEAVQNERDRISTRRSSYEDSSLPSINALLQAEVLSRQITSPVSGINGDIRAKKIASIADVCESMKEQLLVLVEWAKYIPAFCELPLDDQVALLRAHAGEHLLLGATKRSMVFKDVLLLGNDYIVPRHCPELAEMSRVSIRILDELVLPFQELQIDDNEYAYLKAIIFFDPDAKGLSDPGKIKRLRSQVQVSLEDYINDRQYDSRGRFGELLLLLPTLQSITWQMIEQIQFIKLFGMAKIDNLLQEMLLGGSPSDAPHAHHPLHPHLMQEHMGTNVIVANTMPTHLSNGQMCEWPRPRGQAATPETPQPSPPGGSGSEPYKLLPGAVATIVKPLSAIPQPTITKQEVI
ALR inh – inhibitors of human sulfhydryl oxidase ALR | P55789 | purified ALR, DTT oxidation, H2O2 HRP-luminol luminescence | inhibition, % (test concentration not listed) | 290,000 compounds, 3.8% hits | AID 485317;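 active means mean and each replicate at 75% or more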;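 further: stock transfer was 7.5 nL into about 7.5 µL; 0% = neutral wells and 100% = wells with inactivated enzyme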
Target sequence (P55789 whole entry, looked up): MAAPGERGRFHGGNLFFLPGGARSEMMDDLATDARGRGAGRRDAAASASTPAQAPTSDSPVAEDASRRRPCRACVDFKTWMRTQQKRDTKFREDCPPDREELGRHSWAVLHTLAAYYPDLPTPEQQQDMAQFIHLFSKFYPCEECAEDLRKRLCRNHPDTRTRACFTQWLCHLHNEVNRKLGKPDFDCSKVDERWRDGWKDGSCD
B2AR ag – human beta-2 adrenergic receptor agonism by FAP; response, % (no concentration beside the values); 340,000 compounds, 0.43% hits; AID 504454; Am2.2-beta2AR cells, FAP receptor internalization, flow cytometry; reference of the scale not given here;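 active means response above a set limit, near 3 SD of response in nonfluorescent compounds, cut at about 42% in these data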;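 further: stock transfer was 100 nL into about 11 µL; a reference agonist was the positive control; negative values mostly stem from fluorescent compounds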
UCH37 inh – blocks the human deubiquitinase UCH37; Q9Y5K5; purified proteasome/UCH37, Ub-AMC cleavage fluorescence; inhibition, % (no concentration beside the values); 330,000 compounds, 0.33% hits; AID 588478;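 active means mean of two replicates above 20%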;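 further: 0% = compound-free wells with enzyme and 100% = wells lacking proteasome; stock transfer was 100 nL into about 20 µL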
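system = Proteasome-associated human UCH37 deubiquitinase | amount = 0.15 nM proteasome as dispensed | medium = pH 7.4 Tris-HCl (50 mM) with ovalbumin, ATP-MgCl2, DTT | incubation = 30 min preincubation with enzyme, 25 min cleavage at room temperature | detection = AMC fluorescence 355/460 nm | read-out basis = percent inhibition | controls = no-proteasome and no-compound wells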
Ecoli growth – inhibitors of Escherichia coli growth; OD600, 23 h; hits give low values; OD600 absorbance (no concentration beside the values); 330,000 compounds, 0.21% hits; AID 1053175;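 active means OD600 absorbance below the run mean of sample wells minus 3.6 SD, in any replicate, cut at about 0.56 in these data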;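 further: stock transfer was 300 nL into about 60 µL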
FGF22 binding – shifts melting point of recombinant human FGF22; Q9HCT0; 340,000 compounds, 1.5% hits; AID 651658; recombinant FGF22 thermal shift, SYPRO orange fluorescence; percent of sucrose octasulfate shift, DMSO zero; calls only at 9.99 µM;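 active means melting point raised past a set limit in the mean and every replicate; three in four hits are not shown here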
Target sequence (Q9HCT0 whole entry, looked up): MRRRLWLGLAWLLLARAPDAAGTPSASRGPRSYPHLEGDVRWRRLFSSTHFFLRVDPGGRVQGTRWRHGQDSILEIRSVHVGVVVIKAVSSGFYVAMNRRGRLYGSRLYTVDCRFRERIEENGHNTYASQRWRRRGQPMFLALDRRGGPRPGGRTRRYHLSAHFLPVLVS
LANA-H2B inh – blocks KSHV LANA binding to histone H2A/H2B; AID 2629; cell-free LANA-H2A/H2B peptide, fluorescence polarization; Q9QR71; 320,000 compounds, 0.6% hits; inhibition, % (test concentration not listed); in the data active means inhibition mostly above about 10%, no sharp cut-off; inactive means mostly below about 6.7%;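 further: stock transfer was 7.5 nL into about 10 µL; 0% = median of vehicle wells and 100% = median of positive control wells; one replicate is shown; the record names a cut of 25% in any replicate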
* = called active by the depositor; i = inactive; / = not tested or not shown.

SMILES	HNF4A DNA FP	ALR inh	B2AR ag	UCH37 inh	Ecoli growth	FGF22 binding	LANA-H2B inh
COc1cc([C@H]2OC[C@H]3[C@@H]2CO[C@@H]3c2ccc(O[C@H]3O[C@H](CO)[C@@H](O)[C@H](O)[C@H]3O)c(OC)c2)ccc1O[C@@H]1O[C@H](CO)[C@@H](O)[C@H](O)[C@H]1O	1.4	3.8	5.5	0.8	/	i	5.3
COc1ccc(N=C2SC(C(N)=O)CC(=O)N2CCc2ccc(OC)c(OC)c2)cc1 (stereo unspecified)	2.2	-4.9	1.9	4.3	0.629	/	-3.2
Cc1nc(N2CCN(Cc3ccccc3)CC2)[nH]c(=O)c1C	0.4	-9.5	-4.6	1.2	0.655	/	4.1
COc1cccc(OC)c1C(=O)N1CC(C)OC(C)C1 (stereo unspecified)	0.7	-0.4	2.1	1.3	0.664	/	-0.2
COc1cc(/C=C/C(=O)OCC(=O)Nc2cc(C)on2)ccc1OCC#N	-1.2	/	5.6	-6.2	0.682	i	/
COc1ccc(-c2[nH]ncc2CN(C)C(C)c2cccs2)c(F)c1 (stereo unspecified)	0.1	3.8	-6.8	3.3	0.7	i	1.7
Nc1nc(-c2ccc(C(=O)O)cc2)cs1	1.1	-6.4	-6.4	-17.4	0.691	i	1.7
COc1c(S(=O)(=O)N2CCN(C)CC2)ccc(Cl)c1Cl	-0.1	1.3	-0.2	0.7	0.698	i	3.4
Cn1c(=O)n(Cc2ccc(Cl)cc2)c(=O)c2c1nc1n2CCN1Cc1ccco1	2.4	-2.3	-8.3	7.0	0.711	/	-2.0
O=C(Nc1cc(Oc2ccc(Cl)cc2)cc([N+](=O)[O-])c1)c1ccco1	-1.1	0.3	36.2	5.6	0.739	/	-7.8
O=C(CN1CCOCC1)Nc1nc(-c2ccc(Cl)cc2)cs1	3.0	/	-0.1	2.7	0.649	i	-5.1
COCc1c(Br)c(C)nc(OCC(=O)N/N=C/c2ccc(C)o2)c1C#N	3.0	1.0	-2.4	/	/	i	2.2
CC(c1cccs1)N(C)Cc1nc(CCc2ccccc2)no1 (stereo unspecified)	-0.7	-3.9	-2.2	1.5	0.753	i	0.5
CCNC(=S)NCc1ccc(F)cc1	1.2	-21.3	-7.7	4.7	0.692	i	-2.2
Cc1cc(C)cc(-n2c(C)cc(/C=C3\C(=N)N4N=C(CC(C)C)SC4=NC3=O)c2C)c1	-1.2	-5.5	2.7	-65.8	0.721	i	16.5
CCCCn1c(-c2csc3c2CCCC3)n[nH]c1=S	/	9.2	/	1.3	0.672	/	-1.5
Cc1ccc(C(=O)NC(=S)NNC(=O)CCN2CCOCC2)cc1	0.7	98.3*	-2.2	-1.4	0.633	i	-0.1
C[C@H](CO)N1C[C@H](C)[C@@H](CN(C)S(=O)(=O)c2cn(C)cn2)Oc2c(NS(=O)(=O)c3cccs3)cccc2C1=O	2.8	/	8.3	2.3	0.708	i	/
CC(Sc1nnc(-c2ccco2)n1C)C(=O)N1C(C)CCCC1C (stereo unspecified)	-2.5	1.2	-1.9	6.1	0.717	i	-2.4
O=C(CCn1nnc(-c2cccs2)n1)N1CCc2ccccc2C1	-1.6	4.4	-5.2	2.3	0.641	i	-3.8
Cc1ccc(S(=O)(=O)c2cc(N3CCOCC3)nc(-c3ccccc3)n2)cc1	-2.8	-14.4	1.8	-5.7	0.723	/	0.1
O=C(NC1CC1)C1CCN(C2CCN(C(=O)/C=C/c3ccc(F)cc3)CC2)CC1	1.8	2.5	22.1	-2.4	0.668	/	-6.3
Cc1ccsc1/C=N/NC(=O)c1cc(-c2ccncc2)nc2ccccc12	-0.6	13.5	18.1	/	/	i	-3.1
COC(=O)c1ccc(NC(=O)CO/N=C2\CCCc3nonc32)cc1	4.7	6.9	6.1	/	/	i	-2.1
Fc1ccc(CNCc2ccccc2Cl)cc1	-0.6	-18.6	0.0	5.0	0.679	i	-1.2
C=CCn1c(-c2ccccc2)cc(SC)c(C#N)c1=O	-0.1	-16.8	-6.9	1.9	0.691	i	6.3
CCN(C(=O)C1CCCO1)c1ccccc1 (stereo unspecified)	-7.6	2.1	9.4	-0.1	0.686	i	-3.5
COc1ccc(N(C(C)=O)S(=O)(=O)c2cccs2)cc1	2.2	-4.4	1.9	4.6	0.736	/	3.2
CCOC(=O)CSc1nc(N)c(C(=O)Nc2ccc(N(C)C)cc2)s1	-0.3	87.8*	4.4	12.0	0.734	/	-1.1
CC(Oc1ccc2c(c1)c1ccnc3c4ccccc4c(=O)n2c13)C(=O)NCCN1CCOCC1 (stereo unspecified)	-1.8	-9.4	-1.9	-149.3	0.744	/	7.0
CCSc1nnc(-c2ccc(OC)cc2)o1	0.7	-2.2	-3.4	-1.8	0.725	/	0.7
Cn1c(=O)c(C(=O)COC(=O)c2cc(C(F)(F)F)nc3ccccc23)c(N)n(Cc2ccccc2)c1=O	/	-3.6	/	0.1	0.678	i	1.4
CCC(CC)=NNC(=O)c1ccccc1OCc1ccc(F)cc1	1.6	8.7	-7.1	4.4	0.636	/	-0.9
CC(=O)Nc1ccc(NC(=O)CSCCc2ccccn2)cc1	2.0	10.5	2.2	-0.3	0.669	/	1.1
O=C(c1cnn2c(C(F)(F)F)cc(-c3cccs3)nc12)N1CCOCC1	-7.4	-3.0	-8.7	-30.4	0.736	i	2.2
O=C1COc2ccc(S(=O)(=O)Nc3ccc(F)cc3)cc2N1	2.5	-13.0	5.2	1.7	0.637	i	/
CCSc1nnc(SCC(=O)NNC(=O)c2ccccc2F)s1	4.7	-0.1	2.5	4.0	0.702	i	0.6
O=C1c2ccccc2-c2ccc(C(=O)N3CCOCC3)cc21	-0.3	/	-7.1	4.2	0.676	/	0.7
Cc1nn(C)cc1S(=O)(=O)Nc1ncccn1	3.6	-6.2	1.5	2.4	0.666	i	-0.4
CN1CCNC(=O)C1CC(=O)N1CC=C(c2ccc(F)cc2)CC1 (stereo unspecified)	2.5	-0.7	3.7	-1.4	0.697	i	3.9
OCCN1CCN(CC(O)COc2ccc3c(c2)OCO3)CC1 (stereo unspecified)	0.9	-0.2	4.7	3.1	0.779	/	-0.6
CC(=O)Oc1cccc(C(=O)Nc2ccccc2NC(=O)c2cccc(OC(C)=O)c2)c1	-1.3	24.0	-7.6	0.3	0.703	i	0.9
COc1ccc(CCN(C)C(=O)c2ccc(C)c(S(=O)(=O)N3CCCCC3)c2)cc1OC	4.2	-37.7	-0.7	4.3	0.689	i	-1.6
CCCCn1c(SCC(=O)c2ccc3c(c2)NC(=O)CO3)nc2cc(S(N)(=O)=O)ccc21	5.0	3.7	1.1	4.5	0.644	/	0.7
Nn1c(Cc2ccccc2F)nnc1SCCOc1ccc(Cl)cc1	-2.3	-6.9	-6.6	4.4	0.656	i	1.9
COc1ccc(Br)cc1CN1CCN(c2ncccn2)CC1	2.1	-3.0	-4.7	1.3	0.701	i	-1.3
O=C(Oc1ccc(Cl)c(Cl)c1)C1=CC=CN2CCS(=O)(=O)N=C12	-1.8	-0.2	5.7	-80.6	0.663	i	-4.5
COc1c(S(=O)(=O)n2nc(C)cc2C)ccc(Cl)c1Cl	3.8	-14.1	7.3	1.8	0.682	/	-2.4
CCn1c(O)c(N=Nc2ccc(Cl)c(C(=O)O)c2)c2ccccc21	-0.9	19.1	12.2	20.2*	0.667	i	-0.3
Brc1cccc(OCCCNC2CCCC2)c1	0.2	-13.6	-1.2	4.7	0.614	i	5.1
COc1cc(/C=N/NC(=O)c2cc(O)cc(O)c2)ccc1OC(=O)c1ccccc1	-29.9	74.7	9.7	/	/	i	2.1
Cc1nnc(N/N=C/c2cccs2)[nH]c1=O	1.8	-0.3	-0.8	/	/	i	-4.7
CC(C)(C)C(=O)CN1C2=NCCN2c2ccccc21	2.0	93.6*	-1.5	5.7	0.706	i	-3.2
CC1(C)Cc2c(C#N)c(NCCO)nc(-c3ccco3)c2CO1	9.1	12.4	9.7	-425.7	0.699	i	-0.8
COc1ccccc1NC(=O)CSc1nc2ccccc2n1C(C)=O	5.4	-4.1	-2.0	0.0	0.658	/	-11.0
COc1cccc(-c2cccc(NC(=O)C3CCN(Cc4ccc(C)o4)CC3)c2)c1	5.5	5.5	-1.2	8.8	0.695	i	3.0
CCOC(=O)C1=C(C)N(CCCC(=O)O)C(=O)NC1c1cccs1 (stereo unspecified)	-2.0	0.3	-6.4	-2.7	0.669	i	-0.2
Cc1nnc(-c2ccccc2)c[n+]1[O-]	-2.2	-1.0	-2.6	2.8	0.648	/	2.1
COc1ccc(CN(C)C(=O)CNC(=O)c2ccc(C)cc2)cc1	4.4	-3.8	-1.1	-0.2	0.675	i	4.1
NC(=O)[C@H]1CC2(CC(c3cccc(NC(=O)CC(c4ccccc4)c4ccccc4)c3)=NO2)CN1C(=O)C(c1ccccc1)c1ccccc1 (stereo partly specified)	7.9	1.9	3.3	1.4	0.796	i	-3.8

Two entries drawn at random from the list so far:
SMILES	HNF4A DNA FP	ALR inh	B2AR ag	UCH37 inh	Ecoli growth	FGF22 binding	LANA-H2B inh
CCOC(=O)C1=C(C)N(CCCC(=O)O)C(=O)NC1c1cccs1 (stereo unspecified)	-2.0	0.3	-6.4	-2.7	0.669	i	-0.2
COc1cccc(-c2cccc(NC(=O)C3CCN(Cc4ccc(C)o4)CC3)c2)c1	5.5	5.5	-1.2	8.8	0.695	i	3.0

Next entries
SMILES	HNF4A DNA FP	ALR inh	B2AR ag	UCH37 inh	Ecoli growth	FGF22 binding	LANA-H2B inh
CC1CC/C(=N/Nc2ccccc2)C(=O)N1 (stereo unspecified)	2.0	99.0*	2.8	/	/	i	-1.7
Cc1ccc(/C=N/n2cnc3sc4c(c3c2=O)CCCC4)o1	-3.7	1.7	-2.8	/	/	/	1.4
CCOc1ccc(C(=O)NCC(=O)NCC(c2cccs2)N2CCOCC2)cc1 (stereo unspecified)	1.5	-0.3	-2.8	-1.9	0.695	i	3.7
CC(OC(=O)CN1C(=O)NC2(CCCCC2C)C1=O)c1ccccc1 (stereo unspecified)	-3.9	-0.4	-3.0	0.1	0.671	i	-0.2
COCCN(C(=O)CCC(=O)Nc1ccccn1)C(C(=O)NCCC(C)C)c1ccc(F)cc1 (stereo unspecified)	-1.5	2.8	-6.4	0.5	0.672	i	-1.9
COc1ccc(NC(=O)c2cc(-c3cccs3)on2)cc1OC	-0.6	-18.1	0.6	-18.5	0.726	/	-2.5
O=C(NC(=S)NNS(=O)(=O)c1ccc(Cl)cc1)c1cccnc1	-4.5	52.2	3.5	1.5	0.706	i	-0.6
Cn1ncc(Cl)c1C(=O)NNC(=O)Nc1cccc2ccccc12	-0.5	-17.2	4.0	-2.1	0.711	i	-0.5
CCOC(=O)c1cc2c(c(CCO)n1)[C@H](CCO)N(S(=O)(=O)C(C)(C)C)C2	1.1	/	-5.3	0.9	0.693	i	/
COc1cc(CC(NC(C)=O)C(=O)NC2CCN(C(=O)c3ccc(C)cc3)CC2)cc(OC)c1 (stereo unspecified)	2.4	-2.9	8.9	0.6	0.638	i	-0.1
CCCCCCCCCCCCCCC(O)C[N+](C)(CCO)CCO (stereo unspecified)	3.1	/	0.8	/	/	i	/
O=C(O)c1cc(N/N=C/c2ccc(OCc3ccccc3)cc2)ccc1Cl	-0.2	96.6*	4.4	/	/	i	0.6
NC(=O)c1ccccc1OCC(=O)NS(=O)(=O)c1ccccc1	-3.9	-1.6	3.5	2.0	0.65	/	-3.7
CC(C)(C)C(=O)NCc1ccc(C(=O)CN2C(=O)NC3(CCCC3)C2=O)s1	1.1	/	2.1	0.3	0.714	i	/
C=C(C)Cn1c(C(C)NC(=O)CCC)nc2ccccc21 (stereo unspecified)	-2.4	-9.1	0.4	5.1	0.692	/	-0.4
O=C(NCCc1nnc2ccc(SCC(=O)N3CCCC3)nn12)c1ccc(F)cc1	0.6	0.5	-5.4	-1.6	0.699	i	-0.2
COc1ccc(C(N)CCc2ccco2)cc1 (stereo unspecified)	14.0	99.1*	8.9	5.1	0.765	/	-2.8
CN(C)CCOC(=O)C12CC3CC(C1)CC(C(=O)OCCN(C)C)(C3)C2	-3.4	0.7	6.3	2.8	0.708	i	-4.1

The list is partial; rates above refer to the full screens.
